Assay outcomes: PubChem, National Center for Advancing Translational Sciences (NCATS)
Sfp inh: blocks B. subtilis Sfp PPTase activity. Q9F4F7. Biochemical Sfp PPTase activity, qHTS. Potency, µM, for the others: max response, negative = inhibition, actives largely listed as inhibitors. 3.5% of 310,000 active. AID 1490; active = well fitted inhibition curve with a large enough effect; inconclusive = small, poorly fitted or top-dose-only effect, or another doubt; inactive = no such curve, though single readings can be large or run the other way;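 note: the enzyme is Sfp with the accession as filed and its product quenches rhodamine fluorescence; potency is the fitted concentration of half-maximal effect; 0% = enzyme reaction without inhibitor and -100% = no enzyme wells; top concentration of the series not given in the record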
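Fluorescence-quenching assay: 15 nM Sfp-PPTase preincubated 15 min at room temperature with compound, then 5 uM rhodamine-CoA and 12.5 uM BHQ-2-labelled YbbR peptide added. Fluorescence (ex 525/em 598 nm) read at start and after 30 min; difference gives rate.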
PINK1 modulator: modulators of PINK1 expression | PINK1 immunofluorescence, high-content cytometry, 24 h | 0.2% of 410,000 active | Potency, µM (series often up to 76.6 µM), inactives show top-dose activation (PINK1 increase), hits mostly activators | AID 624263; active = well fitted activation curve with a large enough effect; inconclusive = small, poorly fitted or top-dose-only effect; inactive = flat fitted curve, though single readings scatter; cell line not stated here;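 note: potency is the fitted concentration of half-maximal effect; % of control where 0% means no effect; nearly all actives have a fitted effect of over 65% in size; a mitochondrial uncoupler was the plate control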
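Decision-based qHTS: stable cells, 24 h exposure to five compound concentrations, CCCP as control. Fixed cells stained for PINK1 plus nuclear, mitochondrial and cell markers, cytometer read.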
Menin MLL FP FL: displaces fluorescein MLL peptide from human menin. Fluorescence polarization, fluorescein-MLL peptide displacement from menin. FP activity change, % at 61.4 µM. 290,000 tested, under 10 active. AID 1766; inconclusive = falling polarisation curve, or a change in total fluorescence; inactive = total fluorescence flat and polarisation flat or rising; no compound was filed as active; the % refers to the polarisation; negative = inhibition;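 note: % of control where 0% means no effect; inhibitors lower the polarisation; unlabelled MLL peptide was the positive control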
TRPML1 ag: human mucolipin-1 channel agonism. activation, % (test concentration not listed). TRPML1-expressing cells, Ca2+ dye fluorescence, FDSS; host cell line not named in the record; reference of the full effect not given here. 0.12% of 410,000 active; in the data active = activation above about 50%; inconclusive = about 30% to 50%; inactive = below about 30%; note: 0% is about no effect; the text of the record puts the active cut at 80%
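TRPML1-DL cells, Tet-induced overnight (~16 h, 37 degrees C), loaded 45-90 min at room temperature with Ca8 no-wash calcium dye plus quencher. FDSS fluorescence: 10 s baseline, compound pin-transfer, 110 s agonist read, then EC80 54-4 (4uM final) and 110 s antagonist read.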
TRPV1 PAM: human TRPV1 potentiation; Q8NER1; TRPV1-expressing cells, Fluo-8 calcium influx, capsaicin EC20 potentiation; host cell line not named in the record; control for the full effect not named in the record; potentiation, % at 8.33 µM; 0.02% of 320,000 active; active means potentiation above 80%; inconclusive means 30% to 80%; inactive means below 30%; note: 0% is about no effect
Target sequence (Q8NER1 whole entry, looked up): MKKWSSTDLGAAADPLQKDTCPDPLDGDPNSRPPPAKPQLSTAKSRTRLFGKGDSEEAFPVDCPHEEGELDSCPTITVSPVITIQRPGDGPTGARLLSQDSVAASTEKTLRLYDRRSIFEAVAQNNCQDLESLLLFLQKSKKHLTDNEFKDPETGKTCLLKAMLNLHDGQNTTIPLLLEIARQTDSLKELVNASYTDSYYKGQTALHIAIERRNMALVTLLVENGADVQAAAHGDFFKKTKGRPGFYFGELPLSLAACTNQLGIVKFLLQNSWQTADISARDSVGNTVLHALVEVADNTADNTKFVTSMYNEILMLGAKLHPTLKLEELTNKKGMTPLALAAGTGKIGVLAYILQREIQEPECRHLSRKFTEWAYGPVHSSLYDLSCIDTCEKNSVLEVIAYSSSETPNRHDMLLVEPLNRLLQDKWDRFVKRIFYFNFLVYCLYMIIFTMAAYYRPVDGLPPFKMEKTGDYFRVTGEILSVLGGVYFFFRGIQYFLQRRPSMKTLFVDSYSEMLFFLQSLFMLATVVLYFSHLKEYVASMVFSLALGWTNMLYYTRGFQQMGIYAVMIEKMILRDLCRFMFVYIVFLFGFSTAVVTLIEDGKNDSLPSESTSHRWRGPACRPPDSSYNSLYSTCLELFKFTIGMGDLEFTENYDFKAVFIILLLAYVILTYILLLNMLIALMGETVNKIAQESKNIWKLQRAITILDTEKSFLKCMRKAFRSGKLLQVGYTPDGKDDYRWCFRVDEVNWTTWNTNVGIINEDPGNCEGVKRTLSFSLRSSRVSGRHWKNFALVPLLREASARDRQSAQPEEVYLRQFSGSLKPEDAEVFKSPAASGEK
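TRPV1-expressing cells were cultured overnight at 35.5C and loaded with Fluo-8 calcium dye for 40 to 90 min at room temperature. After a 10 s baseline, compound was added and calcium influx was read kinetically for 3 min (ex 480/em 520 nm).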
ClpP mod: qHTS Assay for Activators of ClpP; AID 651965, 2013; ATP-dependent Clp protease proteolytic subunit (Bacillus subtilis (strain 168)), P80244; Potency, µM (highest dose often 57.5 µM), without a hit: at the highest dose activity change, negative = active; 1.9% of 340,000 active; purified B. subtilis ClpP, FRET peptide cleavage, 20 min; active = well fitted falling curve with a large enough effect; inconclusive = small, poorly fitted or top-dose-only effect; inactive = no such curve, though single readings can be large or run the other way; note: potency is the fitted concentration of half-maximal effect; the source files actives as falling curves though it sought activators and does not explain the sign; nearly all actives have a fitted effect of over 65% in size; many hits overshoot -100%
Target sequence (P80244 whole entry, looked up): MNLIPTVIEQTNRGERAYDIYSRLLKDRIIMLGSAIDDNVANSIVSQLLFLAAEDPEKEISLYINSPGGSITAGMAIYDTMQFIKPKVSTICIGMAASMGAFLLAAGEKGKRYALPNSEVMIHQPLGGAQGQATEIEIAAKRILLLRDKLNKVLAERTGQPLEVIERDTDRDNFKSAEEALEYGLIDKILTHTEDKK
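Buffer: 100 mM Tris/HCl pH8, 100 mM KCl, 0.05% low protease BSA, 2.5% glycerol, 0.01% Tween-20. ClpP 10 microg/mL final; 20 min RT; delta FRET normalized to ADEP and DMSO controls.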
TRPML1 inh: inhibitors of human TRPML1 channel. Q9GZU1. activity change, negative = inhibition, % (no concentration beside the values). TRPML1-inducible cells, Ca2+ dye fluorescence, FDSS; hits give low values; inhibition of EC80 agonist-evoked calcium signal. 0.02% of 390,000 active. AID 624415; in the data active means activity change below about -50%; inconclusive means about -30% to -50%; inactive means above about -30%;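 note: stimulus is agonist 54-4 at its EC80 concentration; % is set by controls: 0 for no effect and ±100 for the full control effect; compound concentration not given in the record; the text of the record puts the active cut at -80%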
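Calcium fluorescence in TRPML1-DL cells induced overnight with Tet: a 110 s read after compound pin addition, then a 110 s antagonist read after challenge with 54-4 at 4 uM final (EC80).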
* marks the source's active call; other numbers are inactive results; ? = inconclusive; . = not tested or not shown; & = joins results of further samples; [ ] = dose if it differs, or a comment.

SMILES | Sfp inh | PINK1 modulator | Menin MLL FP FL | TRPML1 ag | TRPV1 PAM | ClpP mod | TRPML1 inh
CC1CCCN(C(=O)C2c3ccccc3C(=O)N3CCc4ccccc4C23)C1 (stereo not drawn) | 7% | -2.7%[38.3 µM] | 2.2 | 1.0 | -1 | -0.5% | 5
CCc1ccc(CNC(=O)Cn2ccc3cc(S(=O)(=O)N4CCCCCC4)ccc32)cc1 | . | 0.4% | . | 0.8 | . | -2.4% | 53
Cc1ccc(-c2noc(CN3CCOCC3)n2)cc1 | 4% | -0.7% | 5.2 | 0.3 | -9 | -0.5% | 7
COc1ccc(NC(=O)CCCN(C)S(=O)(=O)c2ccc(C)cc2)cc1 | 11% | -0.5% | 3.0 | 1.5 | 11 | -2.1% | 31
CC(=O)c1ccc(OCC(=O)NC2CCS(=O)(=O)C2)cc1 (stereo not drawn) | 1% | . | -7.1 | 0.4 | -3 | -0.1% | -11
COc1ccc2nc(Cl)cc(Cl)c2c1 | 5% | -2.3% | 4.5 | 1.5 | 0 | . | -9
CCOc1ccc(CN(C)C(=O)c2ccc3ccccc3n2)cc1 | 11% | -0.1% | 5.0 | -0.8 | 4 | . | 0
C=C(C)CSc1nnc2n(N)c(=O)c3ccccc3n12 | 17% | . | 1.3 | -0.3 | 14 | -1.9% | 4
Cc1c(C(=O)OCC(=O)N2c3ccccc3CC2C)oc2ccccc12 (stereo not drawn) | 14% | 3.9% | -2.4 | 3.3 | -10 | -19% | 12
COCCCNc1oc(-c2ccccc2Cl)nc1C#N | 19% | -0.2% | 3.6 | 1.1 | 2 | 4.2% | -18
COC(=O)C1C2C=CC(C3CC23)C1C(=O)OCC(=O)c1ccc(OC)cc1 (stereo not drawn) | -2% | -4.0% | 5.2 | -0.3 | -14 | -1.6% | -2
Cc1cc(NS(=O)(=O)c2ccc(NC(=O)c3cccnc3)cc2)nc(C)n1 | 23% | 2.3% | 1.4 | -0.6 | 0 | . | 2
COc1ccccc1NC(=O)N(Cc1nnc2n1CCCCC2)c1ccc(F)cc1 | . | -5.7% | . | 2.6 | . | -0.8% | 9
Cc1cc(=O)oc2cc(OCC3CC(c4ccccc4)=NO3)ccc12 (stereo not drawn) | 7% | 12%[38.3 µM] | 3.5 | 1.6 | 0 | 28µM* | 1
COc1ccc(NC(=O)c2ccc3c(=O)n4nc(Nc5ccccc5C)sc4nc3c2)cc1Cl | . | -5.3% | . | 0.5 | . | -9.8% | -4
C=C[C@@H]1c2cc(C)ccc2N(S(=O)(=O)c2ccc(C)cc2)[C@H](c2ccccc2)C1(C#N)C#N | . | 1.2% | . | 21&6.2 | 3 | -3.7%&-1.7% | ?
CCN(CC(=O)NC1CCS(=O)(=O)C1)S(=O)(=O)c1ccccc1 (stereo not drawn) | 10% | 3.5% | -1.9 | 0.8 | -7 | -1.9% | -9
COc1ccc(S(=O)(=O)N(CC(=O)NCc2ccncc2)c2cc(C)cc(C)c2)cc1OC | 6% | 2.2% | . | -0.7 | -6 | . | -6
Cc1cc(C(=O)OCC(=O)N(CC(C)C)c2c(N)n(Cc3ccccc3)c(=O)[nH]c2=O)c(C)o1 | . | 0.2% | . | 0.2 | 14 | 1.0% | 14
CC(C)(C)c1ccc(C(=O)N2CCC(C(=O)NCCC3=CCCCC3)CC2)cc1 | -4% | -1.3%[38.3 µM] | -1.1 | 0.2 | -7 | -0.4% | 17

Only TRPV1 PAM and TRPML1 ag (3 entries from above):
compound	TRPV1 PAM	TRPML1 ag
COc1ccc(NC(=O)CCCN(C)S(=O)(=O)c2ccc(C)cc2)cc1	11	1.5
Cc1cc(=O)oc2cc(OCC3CC(c4ccccc4)=NO3)ccc12 (stereo not drawn)	0	1.6
CC(=O)c1ccc(OCC(=O)NC2CCS(=O)(=O)C2)cc1 (stereo not drawn)	-3	0.4

The listing continues.
SMILES | Sfp inh | PINK1 modulator | Menin MLL FP FL | TRPML1 ag | TRPV1 PAM | ClpP mod | TRPML1 inh
CC(=O)C1CCC2C3CC(C)C4(O)CC(=O)CCC4(C)C3C(O)CC12C (stereo not drawn) | . | -0.1% | . | -0.8 | . | -0.3% | -10
Clc1ccc(CSC2=NCCCN2)cc1Cl | 1% | -1.2% | 0.4 | 0.7 | -2 | -0.3% | 38
CCCNc1c(NS(=O)(=O)c2cccs2)c(=O)oc2ccccc12 | 5% | 2.4% | -0.5 | -0.9 | 1 | -3.5% | -11
CCc1ccc(CNC(=O)c2ccc(-c3nc(CS(=O)(=O)c4ccccc4)c(C)o3)cc2)cc1 | . | 7.1% | . | -0.9 | . | ? | 1
CCc1ccc(NS(=O)(=O)c2cc3c(cc2C)n(C)c(=O)c(=O)n3C)cc1 | -2% | 7.2% | -0.1 | 2.6 | 14 | -1.3% | -19
O=C(COC(=O)c1ccc(F)cc1)NCc1ccc(F)cc1 | . | -0.1% | . | 0.1 | -25 | 0.3% | -6
COc1ccc(CCC(=O)NCc2ccc3c(c2)CCN3C(=O)c2ccc(C)cc2)cc1 | . | 1.1% | . | 2.0 | . | 0.8% | -12
COc1cccc(CNC(=O)CN(C)S(=O)(=O)c2ccc3c(c2)c(=O)n(C)c(=O)n3C)c1 | -4% | 0.3%&1.6% | -3.5 | -0.2&0.3 | 6 | -2.5%&-15% | -19&-17
O=C(O)C(Nc1nc(C(F)(F)F)nc2ccccc12)c1ccccc1 (stereo not drawn) | 11% | 4.5% | 3.9 | 1.1 | ? | 0.2% | 22
C[C@@]12C(=O)N(c3ccccc3)C(=O)N1[C@@H]1c3ccccc3OC[C@@H]1[C@H]2c1ccccc1 | . | 0.5% | . | -0.2 | . | -4.0% | -26
O=C(CCn1c(=O)sc2ccccc21)NCCCn1ccnc1 | -2% | -1.4%[38.3 µM] | 3.0 | 0.9 | 21 | -0.3% | 0
O=C1Nc2c(Cl)cc(Cl)cc2C1=O | . | 5.7% | . | 3.7 | . | . | 11
CCOc1ccc(S(=O)(=O)NCCC(=O)NCC(c2ccc(OC)cc2)N2CCCC2)cc1 (stereo not drawn) | . | 0.6% | . | -0.3 | ? | -3.1% | 6
CC(=O)c1cc(CN2CCN(C3CCCCC3)C(CCO)C2)cs1 (stereo not drawn) | 9% | -0.5% | -7.5 | 1.1 | 7 | . | -2
COc1ccccc1NC(=O)N1CCCC1C(=O)NCc1ccc(F)cc1 (stereo not drawn) | 3% | -2.0% | -0.6 | 2.2 | -9 | 3.8% | -5
C/C(=N\NC(=S)NCc1ccccc1)c1ccc2ccccc2c1OC(F)F | 24% | 4.5% | -0.8 | 0.1 | 21 | -8.7% | 10
COC(=O)c1cccc(NC(=O)c2ccccc2)c1 | 9% | 0.0% | -2.1 | -1.0 | -30 | 1.6% | 1
CSc1ccc(CN(C)CC(=O)Nc2c(F)cccc2F)cc1 | ? | -0.2% | -5.1 | 2.5 | -6 | . | 25
CCc1c(C)nc(N)nc1Cl | 17% | -1.3% | 1.4 | -0.7 | -13 | . | 26
CC1(C(=O)Nc2ccc(Cl)c(Cl)c2)CCN1C(=O)CC(c1ccccc1)c1ccccc1 (stereo not drawn) | . | 2.1% | . | 0.0 | . | -3.2% | .
Cc1ccc(S(=O)(=O)N(CC(=O)O)Cc2ccco2)cc1 | 6% | 1.2% | 0.9 | -0.3 | 14 | -0.9% | -4
COc1ccc([C@H]2[C@H](C(=O)C(C)(C)C)N3N=Cc4ccccc4C3C23C(=O)OC(C)(C)OC3=O)cc1 (stereo partly drawn) | 11% | 2.2% | . | -0.2 | -21 | -1.4% | 12
COc1cccc(NC(=O)c2sc3nc(C)c(C(=O)Nc4ccc(C)cc4C)c(-c4sccc4C)c3c2N)c1 | . | 3.1% | . | 3.4 | . | 29% | -3
Nn1c(Cc2cccc3ccccc23)nnc1SCc1ccccc1Cl | 5% | 0.1% | -22 | 5.4 | -21 | -3.3% | -1
CCCn1nc(C(=O)NC2CCCC2)c2ccccc2c1=O | . | 1.3% | . | -0.4 | . | 0.3% | 3
CCc1cc(=O)[nH]c(SCC(=O)N2CCCC2)n1 | . | 3.7% | . | -0.2 | -1 | . | 3
N#CC1(Cc2ccc(Cl)cc2)c2ccccc2C=CN1C(=O)c1ccccc1 (stereo not drawn) | -5% | -0.4% | 5.9 | 0.6 | -1 | -3.0% | 61
CC(=O)c1ccc(NC(=O)CSc2nccn2C2CCCC2)cc1 | . | 0.7% | . | 1.4 | . | 1.1% | 24
O=c1[nH]c(=S)[nH]c2c1[C@H](CCc1cccc(Cl)c1)O[C@H](C1CCCC1)C2 | . | 1.7% | . | -0.6 | . | -1.0% | .
Cc1ccc(C)c(OC2=NS(=O)(=O)c3ccccc32)c1 | 4% | 4.7% | -4.2 | -0.3 | -3 | . | -8
COc1cc(Cl)cc(C(c2c(C(=O)O)[nH]c3ccccc23)c2c(C(=O)O)[nH]c3ccccc23)c1O | 2% | 2.1% | 2.7 | 0.9 | 10 | -1.7% | 5
COc1ccnc(N2CCN(c3ccccc3)CC2)c1C#N | 9% | . | 0.9 | -0.5 | -4 | -5.8% | -11
Nc1ccc(Oc2ccc3c(c2)C(=O)N(CC2CCCO2)C3=O)cc1 (stereo not drawn) | 13% | 1.0% | 2.1 | -0.1 | 0 | . | 27
COc1ccccc1NC(=O)Cn1c(CN2CCCCC2)nc2ccccc2c1=O | 5% | ? | -1.2 | 1.9 | 1 | -1.9% | 8
Cc1ccc2nc(Nc3ccc(C)c(Cl)c3)c3nncn3c2c1 | -14% | 14% | 25 | 1.1 | -9 | 26% | -16
O=C(NCc1nc2ccccc2[nH]1)C1=C[C@@H](C2CCCCC2)C[C@@H](OCc2ccc(CO)cc2)O1 | -3% | 2.9% | 0.3 | -0.5 | ? | -2.1% | 3
CCOC(=O)c1sc2nc(CSc3ccccc3Cl)[nH]c(=O)c2c1C | 6% | 4.3% | ? | -0.3 | ? | . | 5
Cc1cc(=O)oc(C)c1C(=O)NCCN1CCOCC1 | 14% | 3.9%[38.3 µM] | 6.1 | 0.3 | -25 | -1.2% | 2
CCOc1ccc(Nc2cc(=O)[nH]c(=O)[nH]2)cc1 | 8% | -1.0% | -1.5 | -1.0 | 2 | -0.9% | -6
